High-throughput results deposited in PubChem BioAssay by several laboratories.
WNV protease inh = inhibitors of WNV NS2B-NS3 protease, primary screen, biochemical, fluorogenic substrate | AID 577, 2007 | hit rate 0.18% among 65,000 | z-score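 (tested at a level between 10 and 100 µM)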 | fluorogenic substrate Ex360/Em465; stronger effect = lower value | Genome polyprotein (West Nile virus), P06935;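 active = z-score at -3 or under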;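 also: score is relative to mean and spread of the compound wells of a plate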
Target sequence (P06935 1371-1501 limits assumed): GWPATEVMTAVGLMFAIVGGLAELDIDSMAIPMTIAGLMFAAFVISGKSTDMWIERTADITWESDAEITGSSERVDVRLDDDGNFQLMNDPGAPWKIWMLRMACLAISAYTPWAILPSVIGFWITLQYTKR
Target sequence (P06935 1502-1679 limits assumed): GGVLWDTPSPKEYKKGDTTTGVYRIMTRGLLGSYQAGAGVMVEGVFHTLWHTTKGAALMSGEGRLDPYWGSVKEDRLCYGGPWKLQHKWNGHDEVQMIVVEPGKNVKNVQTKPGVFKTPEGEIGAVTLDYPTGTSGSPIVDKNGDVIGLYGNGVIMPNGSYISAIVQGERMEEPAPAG
MT1-MMP promoter = inhibitors of MT1-MMP promoter transcription, cell-based, luciferase reporter, luminescence (AID 618). calls from a first round at 10 µM; hits with a dose series show EC50 in µM. MT1-MMP promoter luciferase reporter cells, luminescence. hit rate 0.62% among 87,000;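 active = over half of the reporter light lost at 10 µM or EC50 under 50 µM; inactive = the rest and hits that failed the dose series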;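 also: actives suppress MT1-MMP promoter-driven transcription so potencies describe inhibitors; HT1080 fibrosarcoma cells; overnight exposure; toxic or luciferase-blocking compounds were not removed from the actives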
Hsc70 ATP site = Hsc70 inhibitors, probe displacement, primary screen, biochemical, fluorescence polarization (AID 568); Hsc70 fluorescence polarization, probe displacement; higher % means a stronger effect; strong numbers were not always called active; one-dose displacement, % at 20 µM; IC50 in µM for titrated hits; 83,000 tested, under 10 active;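 active = displacement above 50% without optical interference and an IC50 on retest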;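 also: ATPase domain with a fluorescein-tagged ATP probe; 0% = vehicle and 100% = excess ADP; read after one hour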
* marks the source's active call; other numbers are inactive results; i = inactive; . = not tested or not shown; + = active, no number. Compounds were not picked by outcome; overall some 0.8% were active at least once.

entry | Structure | WNV protease inh | MT1-MMP promoter | Hsc70 ATP site
1 | Cc1cccc(-n2nc3c(c2NC(=O)c2ccc(S(=O)(=O)N4CCOCC4)cc2)CSC3)c1C | -0.87 | i | -5.0%
2 | Cc1ccc(S(=O)(=O)n2nc(OC(=O)c3cccs3)cc2N)cc1 | -6.4* | i | 10.9%
3 | CCOC(=O)N1CCN(C(=O)CCCOc2ccccc2)CC1 | -0.86 | i | 1.4%
4 | OCc1nc2ccccc2n1CC(O)Cn1ccc2ccccc21 (stereo not given) | 0.04 | i | -3.3%
5 | COc1ccc(C(=O)Nc2ccc3c(c2)nc(CCNC(C)=O)n3C)cc1 | . | i | -1.3%
6 | COc1ccc(NC(=O)c2ccccc2Cl)cc1NC(=O)CN1CCOCC1 | 0.72 | i | -0.1%
7 | CCC(=O)N1CCN=C1SCc1ccc(F)cc1 | 0.56 | i | 0.4%
8 | CCOC(=O)N1CCN(S(=O)(=O)c2ccc(C(=O)Nc3nc4ccc(F)cc4s3)cc2)CC1 | -0.22 | i | -2.6%
9 | CCOc1ccccc1C1C(C(=O)Nc2ccccc2OC)=C(C)Nc2nnnn21 (stereo not given) | -1 | i | -12.0%
10 | Cn1c(N)c(C(=O)COC(=O)Cc2ccsc2)c(=O)n(C)c1=O | -0.74 | i | 4.3%
11 | CCn1cc(C2=NOC(C(=O)Nc3ccc4c(c3)OCO4)C2)c(C)n1 (stereo not given) | -0.08 | i | -7.0%
12 | COc1ccc(-c2nnc(SCC(=O)N3CCc4ccccc4C3)o2)cc1 | -1.16 | i | 5.3%
13 | O=C(COc1ccc(S(=O)(=O)NC2CCCCC2)cc1)NCc1ccccn1 | 0.77 | i | -1.6%
14 | Cc1c(Cl)cccc1NC(=S)NNc1ncc(C(F)(F)F)cc1Cl | . | i | -0.5%
15 | CCOC(=O)c1c(O)c2ccccc2n(-c2ccccc2)c1=O | -0.68 | i | -5.3%
16 | c1ccc2c(c1)CNC1(CCCCC1)C2 | -0.22 | i | 3.6%
17 | COc1ccccc1NC(=O)CN(Cc1ccco1)C(=O)c1cccs1 | -0.54 | i | 0.6%
18 | C=CCC1c2cccc(C(=O)O)c2C(=O)N1c1cccc(C)c1 (stereo not given) | 0.07 | i | -1.1%
19 | CC(C)CCN1C(=O)c2ccc(C(=O)OCn3nnc4ccccc4c3=O)cc2C1=O | -0.18 | i | 5.7%
20 | CCc1ccc(C(=O)CCC2CCCCC2=O)cc1 (stereo not given) | . | i | -0.2%
21 | CCc1ccccc1NC(=O)CSc1nc2c(c(-c3ccco3)c1C#N)CCCC2 | 1.07 | i | -16.5%
22 | Cc1cccc(N2CCN(C(=O)c3ccc(NC(=O)C4CCCO4)cc3)CC2C)c1 (stereo not given) | 1.09 | i | -2.1%
23 | O=C(C1COc2ccccc2O1)N1CCc2ccccc21 (stereo not given) | -0.33 | i | -2.4%
24 | CCn1c(Cn2nnc(-c3ccccc3)n2)nnc1SCC(=O)Nc1cccc(C(C)=O)c1 | 0.13 | i | -0.2%
25 | Cn1c(Cn2c(=O)sc3ccccc32)nnc1SCC(=O)Nc1ccc(F)cc1 | -1.32 | i | 0.0%
26 | COc1cccc(C2CC(c3c(Cl)cccc3Cl)n3nc(N)nc3N2)c1 (stereo not given) | -0.41 | i | 3.9%
27 | Cc1ccc(-c2cn3nc(C)c(C)nc3n2)cc1 | 2.17 | + | -15.7%
28 | Cc1nonc1NC(=O)CSc1ccc(-c2ccccc2)nn1 | 0.42 | i | -1.1%
29 | COc1ccc(CCNC(=O)Cn2c(=O)oc3ccccc32)cc1OC | -0.36 | i | -4.1%
30 | CCOC(=O)C(NC=O)(NC(C)(C)C)C(=O)OCC | -0.11 | i | 3.3%
31 | Fc1ccccc1-c1nc(NCCCN2CCOCC2)c2ccccc2n1 | -1.17 | i | -2.8%
32 | CCN1CCN(Cc2cc(=O)oc3ccc(Cl)cc23)CC1 | -0.42 | i | -1.9%
33 | COc1cccc(N2CCCn3c2nc2c3c(=O)n(CCN3CCOCC3)c(=O)n2C)c1 | 0.45 | i | 3.3%
34 | Cc1ccc(-c2cn(-c3ccccc3)c3[n+]2CCCS3)cc1 | . | i | 1.3%
35 | CCOC(=O)C1CCN(c2ncnc3c2cnn3-c2ccc(OC)cc2)CC1 | 1.34 | i | -0.2%
36 | CC(=O)Nc1ccc(S(=O)(=O)N2CCN(CCCOc3ccccc3Cl)CC2)cc1 | . | i | 7.2%
37 | CCOC(=O)N1CCN(C(=O)COc2ccc(Br)cc2)CC1 | -0.35 | i | 3.9%
38 | COc1ccc(-c2oc(NC(C)=O)c(C#N)c2-c2ccc(OC)cc2)cc1 | . | i | -8.1%
39 | CCCCC12CN3CC(C)(CN(C1)C31C(=O)N(C)c3ccc(C)cc31)C2=O (stereo not given) | 1.46 | i | -0.6%
40 | CCN(CC)S(=O)(=O)c1cccc2nsnc12 | 0.2 | i | 7.9%
41 | CCN(CC)CCNC(=O)CS(=O)Cc1nc(-c2ccccc2Cl)oc1C (stereo not given) | 0.24 | i | 0.5%
42 | Cn1c(=O)[nH]c(=O)c2c1nc(NCCCn1ccnc1)n2Cc1ccccc1 | -0.76 | i | -2.9%
43 | O=C(COC(=O)c1n[nH]c2ccccc12)NCc1ccccc1 | . | i | 5.2%
44 | COc1ccc(NC(=O)CSc2ncnc3c2cnn3Cc2ccccc2)cc1 | . | i | 7.4%
45 | COc1cccc(CN2CCN(CC(=O)Nc3ccccc3Cl)CC2)c1 | -0.22 | i | -3.0%
46 | COC(=O)c1ccc(C)c(NC(=O)Cn2cnc3ccccc3c2=O)c1 | 0.09 | i | 1.4%
47 | CS(=O)(=O)Nc1ccc(N2CCCCC2)c(Cl)c1 | -0.07 | i | 3.6%
48 | COc1ccc(C(=O)Nc2ccc(S(=O)(=O)N3CCc4ccccc43)cc2)cc1 | . | i | -1.2%
49 | Oc1ccccc1-c1cc(-c2ccc3c(c2)OCCO3)n[nH]1 | -1.44 | + | 1.9%
50 | O=C(Nc1ccc(Cl)cn1)Nc1ccccc1F | . | i | 4.0%

Among those listed so far, these contain a thiophene ring, fused or not.
entry | Structure | WNV protease inh | MT1-MMP promoter | Hsc70 ATP site
2 | Cc1ccc(S(=O)(=O)n2nc(OC(=O)c3cccs3)cc2N)cc1 | -6.4* | i | 10.9%
10 | Cn1c(N)c(C(=O)COC(=O)Cc2ccsc2)c(=O)n(C)c1=O | -0.74 | i | 4.3%
17 | COc1ccccc1NC(=O)CN(Cc1ccco1)C(=O)c1cccs1 | -0.54 | i | 0.6%

(cont.)
entry | Structure | WNV protease inh | MT1-MMP promoter | Hsc70 ATP site
51 | O=c1c2ccccc2oc2nc(C3CCCCC3)n(Cc3ccco3)c(=O)c12 | -1.18 | i | -2.0%
52 | Cc1ccc(C(=O)CSc2nnc(-c3ccccc3N)n2C)cc1C | . | i | -6.3%
53 | CC(=O)CC(C)(C)n1nnc(-c2ccccc2)n1 | -0.31 | i | 0.9%
54 | COc1ccc(-c2nnn(Cc3nn[nH]n3)n2)cc1OC | 0.47 | i | -9.9%
55 | COc1cc(C(=O)Nc2ccncc2)cc(OC)c1OC | 0.64 | i | 0.0%
56 | Nc1nonc1-c1noc(N2CCCCC2)n1 | 0.85 | i | 15.7%
57 | CC(C)c1cc(C(=O)NCc2cccnc2)no1 | -1.14 | i | -2.6%
58 | CC1(O)CC(=O)N(c2ccccc2)O1 (stereo not given) | 1.55 | i | 4.8%
59 | COCCNC(=O)Cn1c(=O)n(CCC(=O)NCCc2ccccc2)c(=O)c2ccccc21 | 1.11 | i | 9.2%
60 | Cc1ccc(C(=O)Nc2nc3ccccc3n3nnnc23)cc1 | . | i | -1.2%
61 | CCCCC(c1nnnn1CCOC)N1CCN(C(=O)c2ccco2)CC1 (stereo not given) | -0.44 | i | 0.3%
62 | COc1ccc(C(CC(=O)O)NC(=O)Cc2ccccc2)cc1OC (stereo not given) | . | i | 5.3%
63 | CC1CN(C2CCN(S(=O)(=O)c3ccccc3)CC2)CC(C)O1 (stereo not given) | 0.36 | i | -2.8%
64 | COc1ccc(C2(O)CCN(Cc3nnnn3Cc3ccc(F)cc3)CC2)cc1 | 0.67 | i | 1.0%
65 | O=C(COc1ccc(F)cc1)NC1CC1 | 0.13 | i | -6.7%
66 | Cc1cccc(-n2c(-c3ccncc3)n[nH]c2=S)c1 | . | i | 2.5%
67 | Cc1ccc2c(c1)N(CC(=O)N1CCCc3ccccc31)C(=O)C(C)O2 (stereo not given) | 1.33 | i | -2.0%
68 | CCC(=O)N(CCCN(C)C)c1nc(-c2cc(OC)ccc2OC)cs1 | 1.98 | i | 5.9%
69 | COc1cc(C(=O)Nc2nc(-c3cccs3)cs2)cc(OC)c1OC | -0.75 | i | 10.2%
70 | Cc1csc(SCC(=O)Nc2cc(S(=O)(=O)N3CCCC3)ccc2Cl)n1 | . | i | -0.2%
71 | CCNc1nc(SC(C)C(=O)OC)nc(N2CCOCC2)n1 (stereo not given) | -0.57 | i | -6.0%
72 | COc1cc(NC(=O)COC(=O)[C@@H]2CCCN2S(=O)(=O)c2ccc(Cl)cc2)cc(OC)c1OC | . | i | -3.1%
73 | COc1ccc(CC(C)N2CCN(c3ccccc3OC)CC2)cc1OC (stereo not given) | -0.72 | i | -4.0%
74 | Cc1ccc2nc(NC3=NCN(CCN4CCOCC4)CN3)nc(C)c2c1 | 0.47 | i | -2.0%
75 | O=C(CCCN1C(=O)c2ccccc2C1=O)Nc1ccc(S(=O)(=O)N2CCOCC2)cc1 | -0.57 | i | 0.5%
76 | COCCn1c(SCC(=O)OCc2ccccc2)nc2c1c(=O)[nH]c(=O)n2C | -2.55 | i | -3.7%
77 | c1ccc2oc(-c3ccc4nc[nH]c4c3)nc2c1 | . | i | 0.3%
78 | CCOC(=O)C1=C(C)NC(=O)N(C(C)=O)C1c1ccc(Cl)cc1 (stereo not given) | -1 | i | 0.4%
79 | O=C(Cc1c(F)cccc1Cl)Nc1cccnc1 | 0.27 | i | -6.1%
80 | Cc1cc(=O)[nH]c(-n2[nH]c(C)cc2=O)n1 | . | i | 9.7%
81 | Cc1ccc(SCCNC(=O)CN(c2ccc3c(c2)OCO3)S(C)(=O)=O)cc1 | 1.16 | i | -0.7%
82 | CC(=O)c1ccc(Nc2nc(C)nc3c2oc2ccccc23)cc1 | 0.91 | i | -6.6%
83 | O=C(CSc1nnc(Cc2cc(=O)[nH]c(=O)[nH]2)n1-c1ccccc1)NCC1CCCO1 (stereo not given) | 0.21 | i | 1.9%
84 | C=CCOc1cccc(C2/C(=C(/O)c3ccccc3)C(=O)C(=O)N2CCCN2CCOCC2)c1 (stereo not given) | -0.72 | i | -5.2%
85 | Cc1cccn2c(=O)c3cc(C(=O)NCCCn4ccnc4)n(C)c3nc12 | 2.26 | i | 52.9%
86 | COc1ccccc1N(CC(=O)NCC1CCCO1)C(=O)CCC(=O)Nc1nccs1 (stereo not given) | . | i | 1.7%
87 | Cn1c(=O)c2c(nc(NCC3CCCO3)n2Cc2ccccc2)n(C)c1=O (stereo not given) | . | i | 1.3%
88 | O=C(Nc1ccccc1)c1ccc(NCCN2CCOCC2)c(S(=O)(=O)N2CCOCC2)c1 | 0.94 | i | 1.6%
89 | CCOC(=O)COc1ccc(C2NC(C(=O)O)CS2)cc1 (stereo not given) | -0.17 | i | -7.8%
90 | Cc1c(C(=O)N(Cc2cccs2)C2CCS(=O)(=O)C2)oc2ccccc12 (stereo not given) | 0.67 | i | -6.2%
91 | COc1cc(N)cc(NC(=O)c2ccncc2)c1 | -0.48 | i | -8.5%
92 | O=C(Oc1cc(-c2ccccc2)no1)c1ccc(F)cc1 | . | i | -0.3%
93 | CN1CCC(OC(=O)C23CCC(C)(C(=O)O2)C3(C)C)CC1 (stereo not given) | 0.86 | i | 0.1%
94 | Nc1c(C(=O)NCc2ccco2)c2nc3ccccc3nc2n1CCc1ccccc1F | . | i | -1.3%
95 | Nc1ccc(-c2nc3c(Cl)cc(N)cc3[nH]2)cc1 | 2.16 | 10.7µM* | -5.2%
96 | Cc1ccccc1-c1nc(CS(=O)CC(=O)NCCN2CCOCC2)c(C)o1 (stereo not given) | 1.81 | i | -0.9%
97 | O=C1c2ccccc2C(Nc2ccc(F)c(Cl)c2)N1Cc1ccco1 (stereo not given) | -0.99 | i | 2.4%
98 | COC(=O)CCC(=O)c1oc2ccccc2c1N | -0.46 | i | 5.3%
99 | O=C(CN(C(=O)CSc1nnc(COc2ccccc2)o1)c1ccc(F)cc1)NC1CCCC1 | 0.08 | i | 2.0%
100 | Cc1ccc(C(=O)c2cc3ccccc3o2)cc1 | . | i | 2.6%

Further results follow:
entry | Structure | WNV protease inh | MT1-MMP promoter | Hsc70 ATP site
101 | Cc1ccc2oc(=O)cc(CN3CCOCC3)c2c1 | -0.54 | i | -0.7%
102 | CCOC(=O)CC(=O)CSc1ncnc2c1cnn2-c1ccccc1 | 1.09 | i | -2.9%
103 | CCOCc1cnc(C)nc1NCC(=O)c1c(C)[nH]c2ccc(OC)cc12 | . | i | 3.7%
104 | CC1=NCCN1S(=O)(=O)c1cc(Cl)ccc1Cl | 0.73 | i | 2.1%
105 | CC(=O)N1CCN(c2ccc(Oc3ncnc4sccc34)cc2)CC1 | 1.47 | i | 1.8%

Random excerpt: 3 compounds from above
entry | Structure | WNV protease inh | MT1-MMP promoter | Hsc70 ATP site
102 | CCOC(=O)CC(=O)CSc1ncnc2c1cnn2-c1ccccc1 | 1.09 | i | -2.9%
104 | CC1=NCCN1S(=O)(=O)c1cc(Cl)ccc1Cl | 0.73 | i | 2.1%
105 | CC(=O)N1CCN(c2ccc(Oc3ncnc4sccc34)cc2)CC1 | 1.47 | i | 1.8%
